Assay outcomes as filed in PubChem BioAssay.
Cruzain Triton = qHTS Assay for Promiscuous and Specific Inhibitors of Cruzain (with detergent) | hit rate 0.43% among 200,000 | purified cruzain, Z-FR-AMC fluorescence, 0.01% Triton | Cruzipain (Trypanosoma cruzi), P25779 | Potency, µM, without a hit: max response, negative = inhibition, usual class: inhibitors;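 also: plate controls were neutral wells for no effect and buffer without enzyme for full effect; nearly all actives have a fitted effect of over 40% in size; top concentration of the series not given in the record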
Target sequence (P25779 123-467 limits assumed): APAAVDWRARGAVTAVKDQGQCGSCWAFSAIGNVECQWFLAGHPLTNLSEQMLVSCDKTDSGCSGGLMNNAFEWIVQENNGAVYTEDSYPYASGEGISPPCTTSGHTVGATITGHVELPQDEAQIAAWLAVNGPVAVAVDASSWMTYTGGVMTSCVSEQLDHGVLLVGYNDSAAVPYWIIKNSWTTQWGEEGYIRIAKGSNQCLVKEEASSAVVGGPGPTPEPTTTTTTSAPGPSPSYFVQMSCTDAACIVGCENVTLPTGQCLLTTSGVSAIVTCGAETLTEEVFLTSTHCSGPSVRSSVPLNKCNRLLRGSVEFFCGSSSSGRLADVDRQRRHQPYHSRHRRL
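Cysteine protease activity tested under reducing, mildly acidic conditions (100 mM sodium acetate pH 5.5, 5 mM DTT) plus 0.01% Triton X-100. Cruzain 1.5 nM; substrate Z-FR-AMC 2 uM; 15 min compound preincubation at room temperature.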
Cruzain noTriton = qHTS Assay for Promiscuous and Specific Inhibitors of Cruzain (without detergent); Cruzipain (Trypanosoma cruzi), P25779; purified cruzain, Z-FR-AMC fluorescence, no detergent; Potency, µM, without a hit: max response, negative = inhibition, hits mostly inhibitors; hit rate 2.3% among 200,000; AID 1476, 2009;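 also: plate controls were enzyme without inhibitor for no effect and buffer without enzyme for full effect; nearly all actives have a fitted effect of over 40% in size; top concentration of the series not given in the record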
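Purified cruzain at 1.5 nM, pre-incubated 15 min with compound at room temperature in 100 mM sodium acetate pH 5.5, 5 mM DTT, 0.00005% Triton X-100. Reaction started with 2 uM Z-FR-AMC; AMC fluorescence increase over 60 s gives rate.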
StopGo reporter = High Throughput Screening for Foot and Mouth Disease Virus Antivirals; AID 1159524, 2015; Potency, µM (highest dose often 57.9 µM), for inactives: at the highest dose signal change, negative = less light; hit rate 1.2% among 410,000; human cells with a luciferase reporter of 2A StopGo recoding; control for the full effect not named in the record; active = well fitted falling curve with a large enough effect; inconclusive = small, poorly fitted or top-dose-only effect; inactive = no such curve, though single readings can be large or run the other way; tested in HEK293T cells; also: nearly all actives have a fitted effect of over 45% in size; luciferase light after 4 h
* marks the source's active call; other numbers are inactive results; ? = inconclusive; & = joins results of further samples; [ ] = dose if it differs, or a comment. Unless noted, calls follow the shape of the dose curve; as a rule, active = well fitted curve in the direction sought with a large enough effect; inconclusive = small, poorly fitted or top-dose-only effect, or another doubt; inactive = no such curve, though single readings can be large; an effect the other way counts as inactive or inconclusive. Unless noted, % is scaled to controls: 0 for no effect and ±100 for the full control effect; potency is read from the fitted curve at half-maximal effect.

compound | Cruzain Triton | Cruzain noTriton | StopGo reporter
CCCC[P+](CCCC)(CCCC)Cc1ccc(NC(=O)[C@@H](Cc2ccc3ccccc3c2)NC(=NC2CCCCC2)NC2CCCCC2)cc1 | -4.4% | -9% | -12%
CC/C=C\C/C=C\C/C=C\CCCCCCCCCC(=O)O | 3.3% | -3% | -5%[6.7 µM]
Cn1cccc1C(=O)N1CCC2(CC1)CN(C(=O)Nc1cccc(C#N)c1)C2 | -0.1% | 0% | -20%
NC(CSCSCC(N)C(=O)O)C(=O)O (configuration not stated) | 3.0% | 7% | -3%
CC(=O)OC1CCC2(O)CC1(C)CCC1C2CC1(C)C (configuration not stated) | -0.7% | 15% | 2%
COCCn1c(=O)c(C)nc2cnc(N3CCOCC3)nc21 | -6.6% | -12% | -13%
CC(=O)OC1CC2C(C)(C)C(O)CC[C@@]2(C)C2CC[C@@]3(C)C(c4ccoc4)OC(=O)C4O[C@@]43[C@]12C (some centres not stated) | -4.3% | ? | ?
NCCc1ccccn1 | 2.6% | 1% | -18%
Cc1noc(C)c1-c1cncnc1-n1ccnc1 | 3.1% | -2% | -10%
O=C(c1ccco1)N1CCC[C@@]2(CCN(c3ccccc3)C2)C1 | -0.3% | 11% | -15%
Cn1cccc1C(=O)N1CCC2(CCCN(Cc3ccccc3)C2)CC1 | 1.7% | 3% | -13%
COc1ccccc1CNc1ncnc2ccc(-c3ccccc3C#N)cc12 | -5.9% | ? | ?
N#Cc1ccc(CN2CC3(CCNCC3)C2)cc1 | 1.5% | 7% | 8%
CC(=O)N[C@@H](C(=O)O)C(C)(C)SN=O | -1.0% | 6% | -26%
O=C(Nc1ccccc1)N1CCC2(CC1)CCN(C(=O)c1cnccn1)CC2 | -1.0% | -6% | -7%
C[N+](C)(CCCCCC[N+](C)(C)CCCN1C(=O)c2ccccc2C1=O)CCCN1C(=O)c2ccccc2C1=O | -2.1% | 4% | -12%&-1%
Cc1cccc(CNc2nc(-c3ccccc3CN(C)C)nc3ccccc23)c1 | 2.6% | 7% | -27%
c1ccc(N2CCC3(CCNCC3)CC2)nc1 | 0.9% | 10% | -29%
COc1cc(OC2CCN(C(C)=O)CC2)ccc1C(=O)N1CCC(N2C(=O)OCc3ccccc32)CC1 | -0.6% | 20% | -14%
CCN(CC)c1ncnc2c1ncn2[C@@H]1O[C@@H](COP(=O)(O)OP(=O)(O)C(Br)(Br)P(=O)(O)O)[C@H](O)[C@H]1O | -1.2% | -2% | -2%
COc1ccccc1-c1nc(NCCc2cnc[nH]2)c2ccccc2n1 | -0.2% | 1% | 12%
CS(=O)(=O)N1CCC2(CC1)CN(Cc1ccccc1)C2 | 1.3% | 10% | -3%
COc1ccccc1CNc1cc(-c2ccccc2Cl)ncn1 | -3.6% | -5% | -8%
COc1cccc(-c2nc(NCCN3CCOCC3)c3ccccc3n2)c1 | 1.0% | -1% | 13%
CS(=O)(=O)Nc1cccc(-c2ccc3ncnc(NCc4cccs4)c3c2)c1 | -7.0% | -6% | ?
Cn1cccc1C(=O)N1CCC2(CCCN(Cc3ccc(C#N)cc3)C2)CC1 | -0.5% | 9% | -16%
O=C1CCC[C@H]2[C@H]3CCCN4CCCC(=CN12)[C@@H]34 | 6.1% | -7% | -2%
COc1ccc(NC(=O)N2CC[C@@]3(CCCN(C(=O)c4ccc(OC)cc4)C3)C2)cc1 | 5.3% | -5% | 6%
N#Cc1ccc(CN2CCC3(CC2)CCN(C(=O)c2cc(C(F)(F)F)cc(C(F)(F)F)c2)CC3)cc1 | -1.6% | -2% | ?
CCCCC/C=C\C\C=C/C=C/C=C/[C@@H](SCC(NC(C)=O)C(=O)O)[C@@H](O)CCCC(=O)O (some centres not stated) | -5.7% | 4% | -12%[0.463 µM]
COc1cccc(Cn2c(=O)c(-c3ccc(F)c(F)c3)nc3cncnc32)c1 | -5.9% | -5% | ?
CN1C(=O)[C@@H](NC(=O)c2cc3ccccc3[nH]2)N=C(c2ccccc2)c2ccccc21 | 1.9% | ? | -15%
CC(=O)OC1CCC23C(=O)OC45CCC(C6=CC(=O)OC6)C4(C)CCC2C5CCC3(O)C1 (configuration not stated) | 2.6% | -7% | 0%
CN(C)C(=O)c1ccc(-c2cc(NCc3ccccc3)ncn2)cc1 | -4.8% | 1% | -3%
C=CC(C1=CC(=O)C(OC)=CC1=O)c1ccccc1 (configuration not stated) | -7.3% | -3% | 25%
CN(C)c1nc(-c2ccc3c(c2)OCO3)nc2ccccc12 | -0.5% | -10% | 15%
FC(F)(F)c1cc(CN2CC3(CCNCC3)C2)cc(C(F)(F)F)c1 | 3.5% | -14% | 1%
CCNc1ncc2nc(-c3ccc(Cl)cc3)c(=O)n(-c3ccccc3)c2n1 | -1.4% | 13% | 11%
O=S(=O)(c1ccccc1)N1CCC[C@@]2(CCN(c3ccncc3)C2)C1 | 6.8% | -8% | -13%
CN1CCN(c2ncnc3ccc(-c4cccnc4)cc23)CC1 | -0.4% | -6% | -10%
COc1ccc(CNc2cc(-c3ccccc3OC)ncn2)c(OC)c1 | -0.6% | 8% | 1%
CC1(C)C(C(Cl)Cl)C2(Cl)C(Cl)C(Cl)C1(Cl)C2(Cl)Cl (configuration not stated) | 5.6% | -7% | -8%
OC1C=C2CCN3Cc4cc5c(cc4C(C1O)C23)OCO5 (configuration not stated) | 0.2% | -13% | -11%
COc1ccc2[nH]cc(CCNc3cc(-c4ccccc4C)ncn3)c2c1 | -1.4% | -12% | -12%
CC(=O)Nc1ccc(OC[C@@H](O)CNC(C)C)cc1 | 1.5%&-0.2% | 2%&-6% | 4%
CN1CCN(c2ncc3ncc(=O)n(C[C@H]4CCCO4)c3n2)CC1 | ? | 20µM* | -4%
CC(=O)NC(CC(=O)O)C(=O)NC(CCC(=O)O)C(=O)O (configuration not stated) | 0.6% | 1% | -16%
COc1ccc(CNc2ccnc(-c3cccc(C#N)c3)n2)c(OC)c1 | -7.1% | 11% | -20%
CC(C)(O)[C@H]1O[C@@H]2CC[C@]3(C)[C@@]4(C)c5[nH]c6ccccc6c5C[C@@H]4CC[C@]3(O)C2=CC1=O | -2.2% | ? | -7%
N#Cc1ccc(CN2CCC3(CC2)CCN(C(=O)Oc2ccccc2)CC3)cc1 | -1.1% | -2% | -15%

Full records, quoted from the list. Screens in order: Cruzain Triton | Cruzain noTriton | StopGo reporter
`CN1CCN(c2ncc3ncc(=O)n(C[C@H]4CCCO4)c3n2)CC1` is entered as ? | 20µM* | -4%
`COc1cccc(Cn2c(=O)c(-c3ccc(F)c(F)c3)nc3cncnc32)c1` is entered as -5.9% | -5% | ?
`CC1(C)C(C(Cl)Cl)C2(Cl)C(Cl)C(Cl)C1(Cl)C2(Cl)Cl` (configuration not stated) is entered as 5.6% | -7% | -8%
`CCNc1ncc2nc(-c3ccc(Cl)cc3)c(=O)n(-c3ccccc3)c2n1` is entered as -1.4% | 13% | 11%
`COc1ccc(CNc2cc(-c3ccccc3OC)ncn2)c(OC)c1` is entered as -0.6% | 8% | 1%

The listing continues:
compound | Cruzain Triton | Cruzain noTriton | StopGo reporter
COc1cc(C2c3cc4c(cc3C(OC(C)=O)[C@H]3COC(=O)C23)OCO4)cc(OC)c1OC (some centres not stated) | -5.2%&5.2% | -5%&-7% | -16%&-4%
COc1ccc(CCCO[C@@H](Cn2ccnc2)c2ccc(OC)cc2)cc1 | 1.5% | 16% | ?
Cc1cc(=O)c2c(O)c3c(O)cc(=O)c4c3c3c(cc(O)c1c23)C(C)(C)C=4O | 0.7% | -3% | ?
COc1ncc2nc(-c3cccs3)c(=O)n(C)c2n1 | -9.2% | 11% | 7%
COc1ccc(C(=O)N2CCC3(CC2)CN(c2ncccn2)C3)cc1 | -1.5% | 0% | -11%
COc1cccc(Cn2c(=O)c(CCc3ccccc3)nc3cncnc32)c1 | 3.3% | -29% | -1%
COc1ncc2nc(CCc3ccccc3)c(=O)n(Cc3cccs3)c2n1 | -1.8% | -1% | -7%
CC(=O)NCCc1c(Cc2ccccc2)[nH]c2ccccc12 | 4.4% | 8% | 2%&2%
N#C/C(=C\c1cccc(O)c1)C(=O)O | -1.6% | -6% | -2%
c1cc(N2CCCC3(CCNCC3)C2)ccn1 | 0.4% | 2% | -12%
CC(=O)NCCNc1ncnc2ccc(-c3ccccc3C(F)(F)F)cc12 | 0.5% | -3% | -17%
COc1ccc(C(OCCN2CCC[C@@H](C(=O)O)C2)(c2ccc(OC)cc2)c2ccc(OC)cc2)cc1 | -1.6% | ? | ?
COCC(=O)N1CCC2(CCCN(c3ccccn3)C2)CC1 | 1.1% | -10% | -12%
FC(F)(F)c1ccccc1-c1ccc2ncnc(NCc3cccs3)c2c1 | 0.5% | 12% | -24%
COc1ccccc1CCn1c(=O)c(-c2ccc(F)c(F)c2)nc2cncnc21 | 5.7% | -5% | -8%
COc1cc2c(cc1-c1cc3cc4ccoc4cc3oc1=O)OCO2 | 8.3% | -3% | 31%[activator]
c1ccc2c(NCCN3CCOCC3)nc(-c3ccc4c(c3)OCO4)nc2c1 | -2.0% | 1% | 16%
N#Cc1ccc(CN2CCCC3(CCN(S(=O)(=O)c4ccccc4)CC3)C2)cc1 | -0.1% | -3% | -26%
CNc1nc(-c2c(C)noc2C)nc2ccccc12 | -0.2% | 1% | -23%
CC(=O)OC/C=C(C)/C=C/C=C(C)/C=C/C1=C(C)CCCC1(C)C | -1.0%&-0.1%&-4.0% | ? | -17%&-15%
Cn1c(=O)c(-c2cccc(F)c2)nc2cncnc21 | -4.6% | -1% | 0%
COc1ccccc1-c1nc(NCCN2CCOCC2)c2ccccc2n1 | -3.0% | 7% | 4%
CCCCCC1C(=O)O[C@H](C)[C@@H](NC(=O)c2cccc(NC=O)c2O)C(=O)OC(C)C1OC(=O)CC(C)C (some centres not stated) | -5.5% | -27% | 40µM*
COc1ccc(-c2c(O)c3c(OC)c4c(cc3oc2=O)OC(C)(C)CC4)cc1 | -4.0% | -1% | 10%
COc1ccc(C(=O)N2CCC3(CC2)CN(CC(C)C)C3)cc1 | -3.5% | 2% | 4%
O=C(Oc1ccccc1)N1CCC2(CC1)CN(C(c1ccccc1)c1ccccc1)C2 | 1.5% | -4% | -9%
CN1CCCC2(CCN(C(=O)c3cnccn3)CC2)C1 | -4.2% | -9% | 3%
COc1ccc(CNc2nc(-c3c(C)noc3C)nc3ccccc23)c(OC)c1 | -1.9% | 19% | -13%
COCC(=O)N1CCC2(CCCN(c3ccccc3)C2)CC1 | 0.8% | 24% | 2%
CNc1cc(-c2ccccc2C)ncn1 | 2.0% | -7% | 0%
O=S(=O)(c1ccccc1)N1CCC2(CCCN(c3ccccn3)C2)CC1 | -5.0% | -1% | -21%
CC(=O)OC1CC[C@@]2(C)C3CC[C@]4(C)C(=O)CCC4C3CC[C@H]2C1 (some centres not stated) | -0.8% | 1% | 16%
CC1(C)OC2C[C@](O)(C(N)=O)C[C@H](O)[C@H]2O1 (some centres not stated) | 3.6% | 12% | -15%
COc1ccc(C2Oc3cc(OC)cc(OC)c3CC2O)cc1 (configuration not stated) | -3.1% | -4% | -3%
COc1cc2c(Nc3ccc(NC(=O)c4ccccc4)cc3)ncnc2cc1OCCCN1CCOCC1 | -1.8% | -1% | -27%
COCC(=O)N1CCC[C@@]2(CCN(C(c3ccccc3)c3ccccc3)C2)C1 | 3.5% | -8% | -15%
CCCCCCCCCCCCCC(=O)N[C@@H](C)[C@H](O)c1ccccc1 | -3.8% | -1% | -14%[6.7 µM]
C/C(N[C@@H]1CSCC1O)=C1/C(=O)CC2[C@@H]1C2(C)C (some centres not stated) | -0.5% | -3% | -11%
COc1c2c(c(C(=O)/C=C/C(C)=C/c3ccccc3)c3c1OCO3)CCN(C)C2 | 5.9% | -3% | -15%
COc1ccc(CNc2ncncc2-c2ccc(C(=O)N(C)C)cc2)c(OC)c1 | 6.3% | -1% | 19%
COc1cc2ncnc(Nc3cccc(Br)c3)c2cc1OC | -15% | 22% | -13%
COc1c(N2C[C@@H]3CCCN[C@H]3C2)c(F)cc2c(=O)c(C(=O)O)cn(C3CC3)c12 | -7.9% | -6% | 3%
C=CCSSSCC=C | 1.5% | 7% | -6%
COc1ccc(NC(=O)N2CC[C@@]3(CCCN(C(=O)c4c(C)noc4C)C3)C2)cc1 | 3.8% | 7% | -7%

Only part of the results is shown, so the mix of outcomes need not match the whole.
